TSHR agonist: agonists of human thyroid stimulating hormone receptor; P16473; HEK293-CNG-TSHR cells (CNG channel as cAMP sensor), membrane potential dye, cAMP; Potency, µM (titrated, usually from 57.1 µM), without a hit: top-dose activation, usual class: activators; 73,000 tested, 0.48% active; AID 926; active = well fitted activation curve of enough size with the parental cells flat; inconclusive = any curve in the parental cells; inactive = parental cells flat and receptor cells flat or falling; note: potency is the fitted concentration of half-maximal effect; % of control where 0% means no effect; weak receptor curves with flat parental cells got no call and are not listed
Target sequence (P16473 whole entry, looked up): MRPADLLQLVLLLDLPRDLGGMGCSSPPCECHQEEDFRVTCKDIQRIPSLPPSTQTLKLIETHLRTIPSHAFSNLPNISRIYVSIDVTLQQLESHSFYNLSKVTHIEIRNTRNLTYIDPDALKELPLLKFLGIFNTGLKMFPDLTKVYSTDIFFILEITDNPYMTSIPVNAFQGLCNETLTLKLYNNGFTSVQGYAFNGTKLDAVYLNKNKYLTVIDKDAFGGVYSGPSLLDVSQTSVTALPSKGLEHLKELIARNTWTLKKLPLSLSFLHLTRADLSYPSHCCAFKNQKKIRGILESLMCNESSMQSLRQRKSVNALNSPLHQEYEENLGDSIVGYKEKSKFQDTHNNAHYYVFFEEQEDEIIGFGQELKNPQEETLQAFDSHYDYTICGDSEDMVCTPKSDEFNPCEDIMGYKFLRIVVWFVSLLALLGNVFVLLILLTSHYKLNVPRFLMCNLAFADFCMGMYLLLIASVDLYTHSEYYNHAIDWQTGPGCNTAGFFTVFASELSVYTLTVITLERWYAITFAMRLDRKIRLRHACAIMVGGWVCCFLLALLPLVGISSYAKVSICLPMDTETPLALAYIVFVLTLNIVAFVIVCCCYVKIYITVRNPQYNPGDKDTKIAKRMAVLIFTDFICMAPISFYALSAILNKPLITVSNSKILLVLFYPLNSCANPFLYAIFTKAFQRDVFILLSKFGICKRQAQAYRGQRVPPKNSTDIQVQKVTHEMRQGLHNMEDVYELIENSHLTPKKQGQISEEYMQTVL
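HEK 293 cells stably expressing TSHR and a cAMP-gated CNG channel; parental CNG-only cells as counterscreen. Cells preloaded 60 min with membrane potential dye plus 100 uM RO 20-1724, then compound 30 min; fluorescence read at 590 nm.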
AID923: qHTS Assay for Allosteric/Competitive Inhibitors of Caspase-1: Spectroscopic Profiling in AFC Spectral Region. compound fluorescence, AFC spectral region (405/520 nm); almost no hit is shown here. Potency, µM (series often up to 57.5 µM), inactives show at the top dose fluorescence increase, hits mostly activators. 75,000 tested, 1.1% active. AID 923, 2007; active = well fitted activation curve with a large enough effect; inconclusive = small, poorly fitted or top-dose-only effect;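 note: potency is the fitted concentration of half-maximal effect; 0% is about no effect; scaled to a free AFC standard on each plate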
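Compound autofluorescence profiled at 405 nm ex/520 nm em during kinetic caspase 1 run (50 nM enzyme, 5 uM Ac-WEHD-AFC, HEPES pH 7.5, 10 mM DTT). Titration up to 57 uM; baseline from regression intercept, normalized to AFC standard curve.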
A488 autofl: A488 region autofluorescence. compound autofluorescence, A488 spectral region, dye equivalency; stronger effect = higher value. max dye equivalency, M. 59,000 tested, 0.1% active. AID 591; active = above 10 nM dye equivalent; inconclusive = 1 to 10 nM; inactive = 1 nM or less; about half of its hits are not listed in these tables;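 note: highest value over a series up to 38 µM; compound alone in buffer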
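Spectroscopic profiling in the A488 region: compounds in pH 8.0 Tris (100 mM), 15 min RT, CCD imaging with 480 nm excitation and 540 nm emission; responses normalized against A488 dye standards.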
A647 autofl: A647 region autofluorescence. Compound fluorescence, A647 channel (570/671 nm), Tris buffer. max dye-equivalent concentration, M. 59,000 tested, under 10 active. AID 592; active means above 1 µM dye equivalent; inconclusive means 0.1 to 1 µM; inactive means 0.1 µM or less;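 note: values scaled relative to a standard on each plate; highest value over a series up to 38 µM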
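Spectral profiling of library compounds in pH 8.0 Tris: 15 min room-temperature incubation, single ex/em pair (570/671 nm), response normalized to Alexa 647 equivalents.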
Resorufin fluor: compounds fluorescent in resorufin spectral region; Compound fluorescence, resorufin region 547/598 nm, buffer; stronger effect = higher value; max dye-equivalent concentration, M; 59,000 tested, 0.04% active; AID 588; active = above 10 nM dye equivalent; inconclusive = 1 to 10 nM; inactive = 1 nM or less; a few of its hits are not listed in these tables; note: highest value over a series up to 38 µM
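Compounds in 100 mM Tris, pH 8.0, incubated 15 min at room temperature, then fluorescence read at 547 nm excitation/598 nm emission. Signal converted to dye-equivalent concentration via an on-plate six-point resorufin standard curve, per compound concentration.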
Active calls of the source: *; i = inactive; ? = inconclusive; . = no result given; & = joins results of further samples; [ ] = another dose, or the depositor's remark.

SMILES | TSHR agonist | AID923 | A488 autofl | A647 autofl | Resorufin fluor
COc1ccc(CCNC(=O)CCn2c(SCC#N)nc3ccccc3c2=O)cc1OC | 0.1%[11.4 µM] | 1.7% | i | 1e-09 | i
CC(Cc1cccs1)NC(=O)Nc1ccccc1 (stereo not given) | -9.5% | 0.1% | i | 2.02e-08 | i
Cc1ccc(Cn2c(CN3CCN(C(=O)c4ccco4)CC3)nc3c2c(=O)n(C)c(=O)n3C)cc1 | 9.2% | 0.1% | i | 2.16e-08 | i
CCOC(=O)c1cccc(NC(=O)CSc2nnnn2CC)c1 | -0.6% | 1.0% | i | 1e-09 | i
O=S(=O)(c1ccccc1)N1CCC2(CCCN(c3ccncc3)C2)CC1 | ? | -1.3% | i | 2.7e-09 | i
Cc1[nH]c2c(C)cccc2c(=O)c1Br | 4.0% | -0.7% | i | 6.2e-09 | i
CN1CCN(CC(=O)N2c3ccccc3Sc3cc4ccccc4cc32)CC1 | 9.8%[11.4 µM] | 0.3%[11.5 µM] | i | 3.15e-08 | i
Cc1nc(N2CCOCC2)c(C#N)c2c1COC(C)(C)C2 | . | . | i | 1e-09 | i
Brc1cccc(-c2nnc(-c3ccccc3)o2)c1 | ? | -1.2% | i | 4.37e-08 | i
CCn1c(C)nc2cc(S(=O)(=O)N3CCCCC3)ccc21 | 8.1% | -3.0% | i | 8.1e-09 | i
CCCCCCCCCCCCCCCC(=O)C(F)(F)F | 2.9% | -2.7% | . | . | .
CC(=O)NC1CC2CCCC(C1)N2CC(=O)N1CCCc2ccccc21 (stereo not given) | ? | 0.5% | i | 2.52e-08 | i
CC(=O)[C@H]1CC[C@@H]2[C@]1(C)CC=C1[C@]23C=C[C@]2(C[C@H](O)CC[C@@]12C)[C@H](C(=O)O)[C@@H]3C(=O)O | 9.9%[11.4 µM] | -4.8%[11.5 µM] | i | 1e-09 | i
Cc1ccc(S(=O)(=O)N2CCCC2)cc1S(=O)(=O)N1CCCC1 | 6.9% | -0.4% | i | 2.37e-08 | i
COCCCNC(=O)c1ccc(CS(=O)(=O)Cc2cccc(C)c2)o1 | -6.0% | -0.5% | i | 4.52e-08 | i

The closing 2 entries of the part before are carried over, then new ones follow.
SMILES | TSHR agonist | AID923 | A488 autofl | A647 autofl | Resorufin fluor
Cc1ccc(S(=O)(=O)N2CCCC2)cc1S(=O)(=O)N1CCCC1 | 6.9% | -0.4% | i | 2.37e-08 | i
COCCCNC(=O)c1ccc(CS(=O)(=O)Cc2cccc(C)c2)o1 | -6.0% | -0.5% | i | 4.52e-08 | i
N#CC1=C(N)NC(SCc2ccc(Cl)cc2)=C(C#N)C12CCCCC2 | . | . | i | 5.49e-08 | i
CCC(NC(=O)Nc1cc(OC)c(OC)c(OC)c1)(C(F)(F)F)C(F)(F)F | . | . | i | 3.4e-09 | i
COC(=O)c1ccc(CSc2ccc3nnc(-c4cccc(F)c4)n3n2)o1 | -1.3% | -2.4% | . | . | .
Cc1c(C(=O)O)cccc1[N+](=O)[O-] | ? | 0.9% | . | . | .
CC(NC(=O)c1ccc(CS(=O)(=O)Cc2ccccc2F)o1)c1ccc2c(c1)OCCO2 (stereo not given) | 3.4% | 0.8% | i | 7.9e-09 | i
CCN(CC)S(=O)(=O)c1cccc(C(=O)NCCCN2CCOCC2)c1 | -4.0% | 0.0% | i | 3.8e-09 | i
CCOC(=O)c1snc2c(=O)[nH]cnc12 | 7.4% | 6.6% | i | 2.5e-09 | i
COc1ccccc1N1CCN(CCCC(=O)c2ccc(F)cc2)CC1 | -3.4% | -0.3% | . | . | .
Cc1ccc2cc(C(c3nnnn3C3CCCC3)N3CCOCC3)c(=O)[nH]c2c1C (stereo not given) | ? | 2.2% | i | 2.28e-08 | i
CC(c1ccc(Br)cc1)N1CC23C=CC(O2)C(C(=O)O)C3C1=O (stereo not given) | -0.8% | 0.1% | . | . | .
Cc1cc(NC(=O)COC(=O)CSCc2ccc(Cl)c(Cl)c2)no1 | 11.8% | -0.6% | i | 2.63e-08 | i
C=CCNC(=O)c1ccccc1NS(=O)(=O)c1ccc(SC)cc1 | 9.9% | 0.4% | i | 2.17e-08 | i
Nc1ccc(-n2nnnc2-c2ccco2)cc1 | -0.5% | 3.5% | i | 2.57e-08 | i
CN1CCN(S(=O)(=O)c2ccc(N(C)Cc3cccs3)nc2)CC1 | -1.0% | -1.9% | i | 8.2e-09 | i
COc1cc(C2CC(=O)c3cnc(N4CCN(Cc5ccccc5)CC4)nc3C2)cc(OC)c1OC (stereo not given) | ? | 0.3% | i | 6.2e-09 | i
Cc1ccc2[nH]c(=O)c(CN(CC3CCCO3)S(=O)(=O)c3c(C)ccc4nsnc34)cc2c1 (stereo not given) | -0.5% | 0.0% | i | 1e-08 | i
CC(=O)c1ccc(OCC(O)COc2ccc(C(C)=O)cc2)cc1 | -1.8% | -0.9% | . | . | .
COC(=O)c1ccc(N=c2sc(C(=O)OC)cc(=O)n2C)cc1 | -0.9% | -1.8% | . | . | .
O=S(=O)(NCCOc1cccc2cccnc12)c1ccc(F)cc1 | 2.6% | -0.2% | i | 1e-09 | i
CCn1c(=O)c(C(=O)Nn2c(C)nc3ccccc3c2=O)c(O)c2ccccc21 | 9.7% | 1.3% | i | 9.5e-09 | i
COc1ccc(OCCC(=O)NC2=NCCS2)cc1 | . | -0.4% | i | 4.25e-08 | i
COc1ccc(-n2c(Cn3c(=O)sc4ccccc43)nnc2SCC(=O)N2CCOCC2)cc1 | 1.8% | 1.9% | . | . | .
CN1CCN(c2nc(N3CCN(CCO)CC3)nc3ccccc23)CC1 | 15.9% | -0.7% | i | 8.4e-09 | i
CCOC(=O)c1ccccc1NC(=O)c1ccccc1SC | ? | -1.0% | i | 1.44e-08 | i
C=Cc1ccc([C@H]2N[C@@H](C(=O)O)CC[C@@H]2C)cc1 | -4.5%[11.4 µM] | -2.4%[11.5 µM] | . | . | .
Cn1c(=O)c2cc(S(=O)(=O)N3CCN(c4cccc(C(F)(F)F)c4)CC3)ccc2n(C)c1=O | ? | -2.0% | i | 1e-09 | i
COc1ccccc1NC(=O)N(c1c(N)n(Cc2ccccc2)c(=O)[nH]c1=O)C1CCCC1 | ? | -0.1% | i | 1e-09 | i
COc1ncnc(OC)c1NC(=O)c1ccc(F)cc1 | -1.6% | -0.3% | i | 1e-09 | i
Cc1cc(C)c(C)c(S(=O)(=O)Nc2ccccc2C(=O)O)c1C | 2.5% | -1.2% | . | . | .
CC1CCCN(c2nc3ccsc3c(=O)s2)C1 (stereo not given) | ? | 7.9% | i | 1.9e-08 | i
CC1CCCN(C(=O)COC(=O)c2n[nH]c3ccccc23)C1 (stereo not given) | . | -0.9% | i | 6.2e-09 | i
COc1cc(OC)cc(C(=O)Nc2ccc(S(=O)(=O)N(C)C)cc2)c1 | . | -1.2% | i | 1.81e-08 | i
Cc1csc(NC(=O)c2nc3nccc(C)n3n2)n1 | -5.6% | 0.3% | i | 7.5e-09 | i
NC(N)=NC[C@@H]1CCCCCCN1 | 0.4%[11.4 µM] | 2.6%[11.5 µM] | i | 1e-09 | i
O=C(CCSCc1ccccc1F)N1CCN(c2ccccn2)CC1 | 11.6% | 1.2% | i | 2.52e-08 | i
CCC(C)NC(=O)C1CCN(C(=O)c2ccccc2)CC1 (stereo not given) | 10.5% | -0.2% | . | . | .
C[C@H](N)C(=O)O | 3.3% | 1.7% | . | . | .
O=C(NCc1ccc2c(c1)OCO2)c1ccc(NS(=O)(=O)c2ccc3c(c2)OCCO3)cc1 | 19.7% | 0.7% | i | 7.1e-09 | i
O=C(NCCSc1ccccc1)c1cccnc1 | -4.6%[11.4 µM] | -1.1% | . | . | .
O=C(c1cccc(F)c1)N1CCN(S(=O)(=O)c2ccccc2)CC1 | 5.7% | 0.6% | . | . | .
O=C(CCN1CCCCC1)Nn1c(=S)[nH]c2ccccc2c1=O | -0.4% | 4.1% | i | 1e-09 | i
COc1ccc(-c2cc(C(F)(F)F)nc(SCC(=O)Nc3cc(C)on3)n2)cc1 | 35.7% | 0.9% | i | 2.02e-08 | i
O=C(CCn1nnc2ccccc2c1=O)N[C@H](C(=O)O)c1ccccc1 | -0.3% | 0.2% | i | 1e-09 | i
N#Cc1nc(COc2ccccc2Cl)oc1NCc1ccc(F)cc1 | . | . | i | 1e-09 | i
Cc1ccc2c(c1)c1ncnc(N3CCC4(CC3)OCCO4)c1n2C | -10.4% | 7.6% | i | 1e-09 | i
COCCN(C(=O)CCCC(=O)Nc1ccccn1)C(C(=O)NC1CCCCC1)c1ccc(C)cc1 (stereo not given) | ? | -3.3% | i | 1e-09 | i
Cc1cccc(-c2cc3nc4c(c(N5CCCC(O)C5)n3n2)CCC4)c1 (stereo not given) | 8.3% | 1.2% | i | 2.4e-09 | i
CCOc1ccccc1N(CC(=O)NC1CCCCC1)S(C)(=O)=O | 20.1%[11.4 µM] | -1.3% | . | . | .
COC(=O)c1ccccc1NC(=O)CSc1nc(O)cc(=O)n1C1CCCC1 | 27.4% | -0.9% | i | 3.75e-08 | i
Cc1cccc(/N=C/c2c(O)n(-c3cc(Cl)ccc3N3CCOCC3)c(=O)c3ccccc23)n1 | 14.2% | 1.7% | i | 5.5e-09 | i
O=C(Cc1ccccc1)Nc1nc(-c2cccs2)cs1 | 15.9% | -0.8% | i | 3.8e-09 | i
CCN=C1SC(C(=O)NCCc2ccccc2)CC(=O)N1CC (stereo not given) | 3.5% | -0.6% | i | 1e-09 | i
CCn1cc(NC(=O)Nc2ccc(OC)c(OC)c2)c(C(N)=O)n1 | -4.0% | -2.5% | i | 1e-09 | i
Cc1ccc(C(=O)CSc2nnc(Cn3nnc4ccccc43)n2C)cc1 | -2.8% | -0.7% | i | 1.47e-08 | i
c1ccc(NCCSc2nc3ccccc3s2)cc1 | -0.7%[11.4 µM] | 6.5%[11.5 µM] | i | 2.1e-09 | i
CCOc1ccccc1N(CC)C(=O)Cn1ncc2c(=O)oc3ccccc3c21 | ? | 2.1% | . | . | .
Cc1cc2occ(CC(=O)NC3=NCCS3)c2cc1C(C)C | 24.9% | 1.1% | i | 1.84e-08 | i
COc1c2ccoc2nc2c(OC)c(OC[C@H](O)C(C)(C)O)ccc12 | -6.7% | 0.4%[25.7 µM] | i | 1e-09&1.6e-09 | i
COc1ccc2cc3[n+](cc2c1OC)CCc1cc2c(cc1-3)OCO2 | ? | -1.5% | i | 1e-09 | i
CCN1C(=O)[C@H]2[C@H]3[C@H](O)[C@H](O)C/C(=N/OC[C@@H](O)[C@H]4O[C@H]5OC(C)(C)O[C@H]5[C@@H]4O)[C@@H]3CC[C@@H]2C1=O | -0.2%[11.4 µM] | -0.9%[11.5 µM] | . | . | .

The list continues:
SMILES | TSHR agonist | AID923 | A488 autofl | A647 autofl | Resorufin fluor
O=C(NCc1ccco1)c1cc2nc(C3CC3)cc(C(F)(F)F)n2n1 | -3.3% | 1.3% | i | 1.6e-09 | i
CCN1C(=O)N(CC)C2C1N(C(C)=O)C(=O)N2C(C)=O (stereo not given) | 5.0% | 0.6% | i | 2.72e-08 | i
Cc1cc(C(F)(F)F)nn1CC(=O)NCc1ccccc1 | ? | -0.1% | i | 1e-09 | i
CCCCCC/C(C=O)=C\c1ccccc1 | -9.2% | -2.4% | . | . | .
COc1cc(NC(=O)c2onc(C)c2Cl)c(OC)cc1Cl | 17.2% | 15.6% | . | . | .
CCc1nnc(NC(=O)Nc2ccccc2OC)s1 | 5.9% | -1.5% | . | . | .
O=C(NCCN1CCCCC1)c1ccc2c(c1)OCCO2 | -13.7% | 0.2% | . | . | .
CCCn1c(-c2ccc(F)cc2)nc2c(NC3CCN(Cc4ccccc4)C3)nc(C)nc21 (stereo not given) | ? | 0.8% | . | . | .

These rows are one share of the data, so the mix of outcomes need not match the whole.
